Compound activity from PubChem BioAssay.
Autofluor counter = compound fluorescence in toxin protease inhibitor counterscreen; hit rate 3.1% among 360,000; compound autofluorescence counterscreen, microsphere flow cytometry; stronger effect = higher value; fluorescence intensity (test concentration not listed); AID 624483;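 active = at least 3 SD above the mean of all compounds, about 16000 in these data; inconclusive = too few beads counted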;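 note: 100 nL of 1 mM stock went into each well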
Mtb hypoxia rep = reduces hypoxia-regulated biosensor signal in M. tuberculosis | M. tuberculosis hypoxia-regulated fluorescent reporter, fluorescence | fluorescence inhibition, % (concentration not given with the values) | hit rate 0.1% among 300,000;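 active = 35 to 45% if threefold the growth effect, above 45% if 1.5-fold the growth effect; inactive = the rest, general growth blockers included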;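 note: wells of about 50 µL received 100 nL stock; 0% = vehicle wells and 100% = reference inhibitor wells; whole bacteria with a GFP reporter of the hypoxia response; strong numbers were not always called active; many hits fall short of the cut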
Sa ugtP lethal = growth inhibition of S. aureus ugtP deletion strain | S. aureus RN4220 ugtP deletion, OD600 growth, 16 h; some inactives read as strong as hits | growth inhibition, % (concentration not given with the values) | hit rate 0.54% among 330,000 | AID 1259309;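 active = z-score under -3 and OD600 up to 0.15 on both plates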;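 note: plate controls were untreated wells for no effect and antibiotic for full effect; wells of about 80 µL received 100 nL stock; the first replicate is given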
RN4220 kill = kills Staphylococcus aureus RN4220. hit rate 0.33% among 330,000. S. aureus RN4220 growth, OD600, 16 h. inhibition, % (test concentration not listed);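 active = z-score of -3 or lower and OD600 up to 0.18 on both plates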;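 note: plate controls were untreated cells for no effect and reference antibiotic for full effect; stock transfer was 100 nL into about 80 µL; one replicate is shown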
BJeLR viability = kills HRASV12-expressing BJeLR cells; BJeLR (HRASV12) viability, CellTiter-Glo ATP luminescence, 48 h; reference of the scale not given here; inhibition, % (no concentration beside the values); hit rate 0.17% among 300,000;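 active = replicate mean above 50%; inconclusive = above 50% but judged a plate artefact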;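 note: 50 nL library stock added to about 25 µL; numbers are from one replicate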
PrP UTR inh = inhibition of PrP 5' UTR reporter expression | cell-based PrP 5' UTR mRNA reporter, plate reader | inhibition, % (concentration not given with the values) | hit rate 0.35% among 340,000;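 active = every replicate at 50% or more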;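 note: 0 = median of the neutral control wells; tested in H4 reporter cells; numbers are from one replicate; inactives centre near -14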
Mtb hypoxia rep growth = recorded beside Mtb hypoxia rep, whose call it bears; growth inhibition, %; measured here: M. tuberculosis growth (absorbance);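 0% = vehicle and 100% = reference antibiotic; read after six days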
Active calls of the source: *; ? = inconclusive; / = no result given.

The first 4 records, ahead of the listing:
Values run as follows: PrP UTR inh	BJeLR viability	Autofluor counter	Mtb hypoxia rep	Mtb hypoxia rep growth	Sa ugtP lethal	RN4220 kill
Cc1occc1C(=O)NCc1ccccc1
  -10	6	3298	2	14	-4	-5.5
COc1cccc(CN2CC(C(=O)NC3CCC(O)CC3)CCC2=O)c1 (stereo unspecified)
  2	5	5476	7	0	1	2.0
COc1ccc(-c2nn(CCC#N)cc2C(=O)Nc2ccccc2Cl)cc1
  -18	-3	4055	13	7	9	3.7
Cc1nnc2ccc(N3CCN(C)CC3)nn12
  -27	-1	3106	4	6	9	2.8

The listing (from the top)
Values run as follows: PrP UTR inh	BJeLR viability	Autofluor counter	Mtb hypoxia rep	Mtb hypoxia rep growth	Sa ugtP lethal	RN4220 kill
Cc1occc1C(=O)NCc1ccccc1
  -10	6	3298	2	14	-4	-5.5
COc1cccc(CN2CC(C(=O)NC3CCC(O)CC3)CCC2=O)c1 (stereo unspecified)
  2	5	5476	7	0	1	2.0
COc1ccc(-c2nn(CCC#N)cc2C(=O)Nc2ccccc2Cl)cc1
  -18	-3	4055	13	7	9	3.7
Cc1nnc2ccc(N3CCN(C)CC3)nn12
  -27	-1	3106	4	6	9	2.8
CC(=O)c1cccc(NC(=O)N2CCCC2C(=O)NCc2ccc(C)cc2)c1 (stereo unspecified)
  -11	-5	5428	/	/	2	0.9
Cc1ccc(-c2nnc(SCC(=O)Nc3ccc4c(c3)OCCO4)n2N)cc1
  -8	/	2455	/	/	8	5.4
CN1CCC(N(C)CC(O)c2ccccc2)CC1 (stereo unspecified)
  -13	-13	3143	7	-10	7	9.9
C/C(CC(=O)NC1CCCCC1)=N\NC(=O)COc1ccc(C)cc1Br
  -21	-1	4847	/	/	/	/
COc1ccccc1N1CCN(C(=O)c2ccco2)CC1
  -27	-10	6142	1	7	4	2.5
Cc1cccc(C(=O)NC2CCN(S(=O)(=O)c3ccc(F)cc3)CC2)c1
  -8	1	4326	-2	-1	-3	2.4
C/C(CC(=O)N1CCN(C=O)CC1)=N\NC(=O)c1ccc(Cl)cc1
  -9	3	2206	/	/	/	/
COc1cccc(NC(=O)CSc2nc3ccccc3c(=O)n2CCCC(=O)NCC2CCCO2)c1 (stereo unspecified)
  -25	-17	4312	4	5	1	0.2
C/C=C(/C)C(=O)Nc1cccc(C2=NOC3(C2)C[C@H](C(N)=O)N(C(=O)Cc2ccc([N+](=O)[O-])cc2)C3)c1 (stereo partly specified)
  -15	-4	4112	/	/	/	/
Cc1ccc(OCC(=O)Nc2ccc3c(c2)CCC3)c([N+](=O)[O-])n1
  -26	-8	4437	10	7	2	-3.8
O=C(OCCCc1cc2ccccc2c(=O)o1)c1ccc(C(F)(F)F)cc1
  -11	/	2963	7	1	14	7.4
Cn1ncc(Br)c1C(=O)N1CCN(C(=O)c2ccco2)CC1
  2	1	2508	7	1	10	2.9
O=C(O)CSCC(=O)N(c1ccccc1)c1ccccc1
  -36	-19	4111	8	15	6	3.7
COc1ccc(-c2csc(NC(=O)CN3C(=O)C4CCCCC4C3=O)n2)c(OC)c1 (stereo unspecified)
  -23	0	4533	0	0	-2	0.6
Cc1ccc(NC(=O)CSc2nnc(-c3cc(C)[nH]n3)n2N)c(C)c1
  -9	0	4420	2	-3	9	5.3
O=C(CN1C(=O)COc2ccccc21)N1CCN(C2CCCCC2)CC1
  -8	-5	6165	/	/	/	/

Reprinted from the part before: five compounds, followed by the next part.
Values run as follows: PrP UTR inh	BJeLR viability	Autofluor counter	Mtb hypoxia rep	Mtb hypoxia rep growth	Sa ugtP lethal	RN4220 kill
Cn1ncc(Br)c1C(=O)N1CCN(C(=O)c2ccco2)CC1
  2	1	2508	7	1	10	2.9
O=C(O)CSCC(=O)N(c1ccccc1)c1ccccc1
  -36	-19	4111	8	15	6	3.7
COc1ccc(-c2csc(NC(=O)CN3C(=O)C4CCCCC4C3=O)n2)c(OC)c1 (stereo unspecified)
  -23	0	4533	0	0	-2	0.6
Cc1ccc(NC(=O)CSc2nnc(-c3cc(C)[nH]n3)n2N)c(C)c1
  -9	0	4420	2	-3	9	5.3
O=C(CN1C(=O)COc2ccccc21)N1CCN(C2CCCCC2)CC1
  -8	-5	6165	/	/	/	/
O=[N+]([O-])c1ccc(-c2cn(-c3ccccc3F)c(=S)[nH]2)cc1
  -30	5	3083	6	6	5	11
CCn1ccnc1CN1CCC(n2nccc2NC(=O)CCc2ccccc2)CC1
  -5	-7	4525	7	5	10	5.1
Cc1ccc(S(=O)(=O)N/N=C\c2cc3c(cc2[N+](=O)[O-])OCO3)cc1
  -13	1	7140	/	/	/	/
CC(=O)NC1=NC(=O)/C(=C/N2CCOCC2)S1
  -67	7	3203	/	/	/	/
O=C(Cc1cccs1)N1CCC2(CC1)OCCO2
  1	-1	20223*	-1	10	-1	2.0
CC1Cc2ccccc2N1C(=O)COc1ccc2c(c1)OCO2 (stereo unspecified)
  -31	3	3436	-1	-6	4	14
Cc1cc(N(C)C)nc(Nc2ccccc2)n1
  -16	/	5691	-3	2	-7	1.4
O=C(NCc1ccccc1)C1=C[C@H](c2ccc(Br)cc2)C[C@H](OCc2ccc(CO)cc2)O1
  3	-6	3864	/	/	/	/
CCCCCCCCN1[C@@H](CC(=O)O)c2ccc(C(F)(F)F)cc2S1(=O)=O
  -25	10	4280	/	/	/	/
Cc1ccc(S(=O)(=O)c2cc(N3CCOCC3)nc(-c3ccccc3)n2)cc1
  -8	-2	2831	-6	-8	-4	-12
S=C(NCCN1CCOCC1)N/N=C/c1c2ccccc2cc2ccccc12
  -16	0	2150	/	/	/	/
Oc1ccccc1-c1nnc(COc2ccc(Cl)cc2Cl)o1
  -81	5	4383	/	/	4	5.4
Cc1ccc(NC(=O)NCc2ccc3c(c2)OCO3)c(C)c1
  -2	-2	2445	14	10	9	4.1
N#CCc1c(C#N)c(N)nc(N2CCN(c3ccc(F)cc3)CC2)c1C#N
  -13	7	12133	9	7	-6	5.3
O=C(Nc1cccnc1)c1cnc2ccccc2n1
  -25	0	4351	/	/	8	3.0
O=C(COC(=O)c1ccccc1NCCO)NCCC1=CCCCC1
  -20	-1	5498	3	0	1	7.3
COc1ccc2c(c1)SCC/C2=C\CN1C(=O)CCC1=O
  -18	6	2185	-4	-1	9	4.6
CCOC(=O)c1c(C)[nH]c(C(=O)CSc2nnc(C3CC3)n2N)c1C
  -27	3	8796	0	5	-5	4.5
CCOc1ccc(CCNC(=O)CN2C(=O)NC3(CCCCCC3)C2=O)cc1OCC
  -12	/	8589	3	0	8	1.2
O=c1cc(-c2ccccc2Cl)oc2cccc(O)c12
  -19	6	4013	6	2	-7	3.5

Continuation.
Values run as follows: PrP UTR inh	BJeLR viability	Autofluor counter	Mtb hypoxia rep	Mtb hypoxia rep growth	Sa ugtP lethal	RN4220 kill
Cc1cc(OCc2cc(C(=O)N(Cc3nccn3C)C(C)C)no2)cc(C)c1Cl
  -8	-4	6660	1	9	2	5.8
CCN1CCN(S(=O)(=O)c2ccc(OC)c(Br)c2)CC1
  -8	12	3758	-1	-7	0	2.3
O=C(NC1CCCCCC1)c1cc2ccccc2oc1=O
  -61	-10	3555	2	8	2	11
Cc1cccc(NC(=O)Nc2ccc([N+](=O)[O-])cc2)n1
  -35	-3	4261	4	-9	7	1.0
Oc1ccc[n+](C=Cc2ccccc2)c1
  /	/	/	13	12	-7	5.4
CCCCNCC1C(Oc2ccc(Cl)cc2)C(=O)N1c1ccccc1C (stereo unspecified)
  -11	2	2358	1	-5	-25	-9.8
O=C(Nc1cccnc1)c1ccc(Br)c(S(=O)(=O)N2CCCC2)c1
  -5	1	5841	-6	9	-1	-0.8
C#CCNC(=O)C1=C[C@H](c2ccccc2)C[C@H](OCCCCO)O1
  -10	-17	4379	/	/	/	/
Cc1ccc(-n2nnnc2Sc2ccc(S(=O)(=O)NCCN(C)C)cc2[N+](=O)[O-])cc1
  5	-11	1984	0	8	11	0.7
Clc1ccc2[nH]c3c(c2c1)CCNC3
  -9	-6	3250	5	4	1	-0.2
Cc1ccc(CNC(=O)C(NS(=O)(=O)c2cccc3nsnc23)C(C)C)cc1 (stereo unspecified)
  -10	1	4505	13	-1	3	-1.2
CC1CCCCC1N=CC1=C(O)CC(C)(C)CC1=O (stereo unspecified)
  -19	-3	10290	14	4	-3	1.6
CCCOc1ccccc1C=NNc1ccnc(=O)[nH]1
  /	/	/	10	2	15	2.1
CCC1CCCCN1CCCNC(=O)Cn1c(=O)c2cccn2c2cccnc21 (stereo unspecified)
  -20	2	10711	-8	-9	-4	-1.4
O=C(Nc1cccc(Br)c1)C1CCCC1
  /	1	3759	5	3	3	2.1
Cc1ccc(C(=O)CC(=O)c2cccc(F)c2)c(O)c1
  -14	4	10073	7	18	94*	88*
COc1ccc(C(=O)OC2CC[C@@]3(C)C4CCC5[C@]6(O)CC(O)[C@@]7(O)C(CN8CC(C)CCC8[C@@]7(C)O)[C@]6(O)C[C@@]53O[C@]24O)cc1OC (stereo partly specified)
  -29	4	3047	6	11	3	2.9
CCN(CC)C(=O)COc1cc(C)cc2oc(=O)c3c(c12)CCCC3
  2	-1	/	-8	-3	3	0.3
O=C(CNS(=O)(=O)c1ccccc1)Nc1ccc(C(F)(F)F)cc1
  /	-12	10817	-1	13	-8	-1.8
CC(C)=CCN1CCN(Cc2cccc3nonc23)CC1CCO (stereo unspecified)
  -25	0	4126	-5	-5	2	6.4

Carrying on.
Values run as follows: PrP UTR inh	BJeLR viability	Autofluor counter	Mtb hypoxia rep	Mtb hypoxia rep growth	Sa ugtP lethal	RN4220 kill
COc1ccccc1Nc1nnc(SCC(=O)N2CCCC2=O)s1
  -18	-4	12038	5	14	-1	1.7
O=C(COC(=O)c1ccc(F)c(S(=O)(=O)N2CCOCC2)c1)c1ccccc1
  -5	/	3906	-3	13	0	1.4
Cn1nc([N+](=O)[O-])nc1Oc1ccc2ccccc2c1
  -8	-7	8171	13	19	8	3.8
CCN(CC)S(=O)(=O)c1ccc(C(=O)OCCNC(=O)c2cccnc2)cc1
  -6	-5	9491	12	11	3	-0.3
COCCNC(=O)C(=O)c1c(-c2ccccc2)[nH]c2ccccc12
  -56	4	4103	3	3	2	4.1
O=C(NCCc1ccccc1)c1nc2nc(-c3cccs3)cc(C(F)(F)F)n2n1
  -14	5	6660	-5	7	8	9.1
CCN(CC)C1=NC=CC(c2ccccc2)=CC1C (stereo unspecified)
  -11	1	10163	1	6	2	1.2
O=[N+]([O-])c1ccc(Cl)c(-c2ccc(/C=N/n3cnnc3)o2)c1
  -12	11	3397	/	/	/	/
O=C(NCC(c1ccc(F)cc1)N1CCOCC1)c1cccnc1Sc1ccc(Cl)cc1 (stereo unspecified)
  -5	11	?	2	8	-1	3.6
Cc1ccn2c(=O)c(C(=O)NCCC3=CCCCC3)c(O)nc2c1
  -15	-4	5666	-1	7	5	2.0
O=C(COC(=O)/C=C/c1ccc(Cl)cc1)NCCN1C(=O)CSC1=O
  15	2	4918	1	-3	1	1.0
CC(C)c1ccc(S(=O)(=O)c2ccc(NN)cc2)cc1
  -28	/	3747	9	12	-3	4.9
CC(C)(C)c1ccc(OCCC(=O)NCCc2ccc(S(N)(=O)=O)cc2)cc1
  -6	-3	?	7	-6	11	4.7
COc1ccc(CNC(=O)C(C)N2C(=O)NC3(CCCCCCC3)C2=O)cc1 (stereo unspecified)
  -15	/	5637	0	-1	1	0.5
Cc1ccc(S(=O)(=O)N2CCC(C(=O)Nc3ccc(S(=O)(=O)N4CCOCC4)cc3)CC2)cc1
  -12	/	3907	15	8	1	1.8
CC1(C)Cc2cccc(OCC(=O)Nc3cccnc3Cl)c2O1
  -37	-6	2946	10	5	-2	3.1
Cn1c(C=NNc2nc3ccccc3[nH]2)nc2ccccc21
  /	/	/	-10	-3	0	-1.9
CSc1ncccc1C(=O)OCC(=O)c1[nH]c(C)c(C(C)=O)c1C
  -28	/	2867	1	-1	-1	0.2
COc1ccc(OC)c(S(=O)(=O)N2CCC(C(=O)NCc3ccc4c(c3)OCO4)CC2)c1
  -12	5	5500	4	0	12	-0.5
